# Resorufin fluor – qHTS Assay for Spectroscopic Profiling in Resorufin Spectral Region; max dye-equivalent concentration, M; Compound fluorescence, resorufin region 547/598 nm, buffer; stronger effect = higher value; actives 0.04% (n = 59,000); active = above 10 nM dye equivalent; inconclusive = 1 to 10 nM; inactive = 1 nM or less; a few of its hits are not listed in these tables; also: highest value over a series up to 38 µM
#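 Compounds in 100 mM Tris, pH 8.0, incubated 15 min at room temperature, then fluorescence read at 547 nm excitation/598 nm emission. Signal converted to dye-equivalent concentration via an on-plate six-point resorufin standard curve, per compound concentration.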
# A488 fluor – qHTS Assay for Spectroscopic Profiling in A488 Spectral Region | compound autofluorescence, A488 spectral region, dye equivalency; stronger effect = higher value | actives 0.1% (n = 59,000) | AID 591, 2007 | max dye equivalency, M; active = above 10 nM dye equivalent; inconclusive = 1 to 10 nM; inactive = 1 nM or less; about half of its hits are not listed in these tables;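 also: highest value over a series up to 38 µM; compound alone in buffer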
#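 Readout is A488 dye-equivalent concentration, calibrated by a per-plate six-point Alexa 488 series. Compounds in 100 mM Tris buffer pH 8.0 were incubated 15 min at room temperature. Plates were imaged using 480 nm excitation/540 nm emission filters.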
# TSHR ag – qHTS Assay for Agonists of the Thyroid Stimulating Hormone Receptor | HEK293-CNG-TSHR cells (CNG channel as cAMP sensor), membrane potential dye, cAMP | Potency, µM (doses to about 57.1 µM), for inactives: at the highest dose activation, usual class: activators | actives 0.48% (n = 73,000) | AID 926, 2007; active = well fitted activation curve of enough size with the parental cells flat; inconclusive = any curve in the parental cells; inactive = parental cells flat and receptor cells flat or falling; also: potency is read from the fitted curve at half-maximal effect; % of control where 0% means no effect; weak receptor curves with flat parental cells got no call and are not listed
# Target sequence (P16473 whole entry, looked up): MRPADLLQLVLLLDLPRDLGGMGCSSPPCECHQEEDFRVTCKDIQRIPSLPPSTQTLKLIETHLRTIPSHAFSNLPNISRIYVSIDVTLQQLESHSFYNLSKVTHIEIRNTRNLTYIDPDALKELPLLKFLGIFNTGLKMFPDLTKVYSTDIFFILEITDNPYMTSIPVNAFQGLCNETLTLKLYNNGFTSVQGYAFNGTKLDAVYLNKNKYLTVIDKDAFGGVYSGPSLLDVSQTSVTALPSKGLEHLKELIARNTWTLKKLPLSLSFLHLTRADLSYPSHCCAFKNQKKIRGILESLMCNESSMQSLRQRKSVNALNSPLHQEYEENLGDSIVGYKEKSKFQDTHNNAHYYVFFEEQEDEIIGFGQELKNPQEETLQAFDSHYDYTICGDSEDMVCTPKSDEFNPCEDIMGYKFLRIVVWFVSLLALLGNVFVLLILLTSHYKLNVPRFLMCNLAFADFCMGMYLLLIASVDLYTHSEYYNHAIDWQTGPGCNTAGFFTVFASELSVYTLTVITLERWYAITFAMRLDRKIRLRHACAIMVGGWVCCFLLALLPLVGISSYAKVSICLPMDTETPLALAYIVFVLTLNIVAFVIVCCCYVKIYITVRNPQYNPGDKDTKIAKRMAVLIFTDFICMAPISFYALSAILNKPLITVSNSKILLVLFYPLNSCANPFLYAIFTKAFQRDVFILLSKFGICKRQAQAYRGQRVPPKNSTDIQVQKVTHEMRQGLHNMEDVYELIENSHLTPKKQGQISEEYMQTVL
#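 HEK 293 cells stably expressing TSHR and a modified CNG channel, with CNG-only parental cells as counterscreen, were preloaded 60 min at room temperature with membrane potential dye containing 100 uM RO 20-1724. Compound exposure was 30 min, and depolarization was read as fluorescence at 590 nm.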
# AID923 – qHTS Assay for Allosteric/Competitive Inhibitors of Caspase-1: Spectroscopic Profiling in AFC Spectral Region; AID 923, 2007; actives 1.1% (n = 75,000); compound fluorescence, AFC spectral region (405/520 nm); almost no hit is shown here; Potency, µM (top dose mostly 57.5 µM), for inactives: at the top dose fluorescence increase, usual class: activators; active = well fitted activation curve with a large enough effect; inconclusive = small, poorly fitted or top-dose-only effect;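 also: potency is read from the fitted curve at half-maximal effect; 0% is about no effect; scaled to a free AFC standard on each plate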
#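 Compound autofluorescence profiled at 405 nm ex/520 nm em during kinetic caspase 1 run (50 nM enzyme, 5 uM Ac-WEHD-AFC, HEPES pH 7.5, 10 mM DTT). Titration up to 57 uM; baseline from regression intercept, normalized to AFC standard curve.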
# A647 fluor – qHTS Assay for Spectroscopic Profiling in A647 Spectral Region; AID 592, 2007; max dye-equivalent concentration, M; 59,000 tested, under 10 active; Compound fluorescence, A647 channel (570/671 nm), Tris buffer; active means above 1 µM dye equivalent; inconclusive means 0.1 to 1 µM; inactive means 0.1 µM or less;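 also: values scaled relative to a standard on each plate; highest value over a series up to 38 µM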
#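 Fluorescence read (570 nm ex, 671 nm em) after 15 min RT incubation of compounds in 100 mM Tris buffer, pH 8.0; values expressed as dye-equivalent concentration against a six-point A647 standard series on each plate.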
# Starred values were filed as active, the others as inactive; i = inactive; ? = inconclusive; / = no result given; [ ] = another dose, or the depositor's remark.
SMILES,Resorufin fluor,A488 fluor,TSHR ag,AID923,A647 fluor
Cc1csc(NC(=O)C2CCN(C(=O)CSc3nnc(C)n3Cc3ccccc3)CC2)n1,i,i,-2%[11.4 µM],-0.2%,2.2e-08
O=C(OCC(=O)N1CCc2ccccc21)c1cccnc1,i,i,-2%,0.0%,3.7e-09
COC(=O)CSC1=C(C#N)C(c2sccc2C)CC(=O)N1 (centres undefined),i,i,-5%,-0.8%,1e-09
O=C1C=CC2(OCCCO2)C(Br)=C1,/,/,-4%[11.4 µM],1.4%[11.5 µM],/
Cc1nc2cc(N3CCN(C)CC3)c(NC(=O)Cc3ccccc3)cc2c(=O)n1Cc1ccccc1,i,i,-2%,0.9%,1.4e-09
OC[C@H]1O[C@@H]2O[C@H]3[C@H](O)[C@@H](O)[C@@H](O[C@H]4[C@H](O)[C@@H](O)[C@@H](O[C@H]5[C@H](O)[C@@H](O)[C@@H](O[C@H]6[C@H](O)[C@@H](O)[C@@H](O[C@H]7[C@H](O)[C@@H](O)[C@@H](O[C@H]8[C@H](O)[C@@H](O)[C@@H](O[C@H]1[C@H](O)[C@H]2O)O[C@@H]8CO)O[C@@H]7CO)O[C@@H]6CO)O[C@@H]5CO)O[C@@H]4CO)O[C@@H]3CO,/,/,?,2.7%,/
Cc1cccc(NC(=O)c2cccs2)n1,i,i,2%,0.5%,6.6e-09
CC(C)Cn1c(SCC(=O)NC(=O)NC2CCCC2)nc2ccccc21,i,i,?,-2.0%,6.9e-09
COc1cccc(-c2nnc3sc(-c4ccccc4)nn23)c1,i,i,/,/,1e-09
CCn1c(CCC(=O)Nc2nc3c(s2)CCCC3)nc2cc(S(=O)(=O)N(C)C)ccc21,i,i,17%,-2.5%,2.3e-08
CC(=O)N1C(=O)C2(C(C#N)=C(N)Oc3n[nH]c(-c4ccccn4)c32)c2ccccc21 (centres undefined),i,i,1%,-0.6%,1e-09
O=C(NCc1ccco1)c1ccc(CS(=O)(=O)c2cccc(C(F)(F)F)c2)o1,i,i,8%,1.3%,1.3e-08
CCC(C(=O)NC1CCCC1)N(C(=O)Cn1nnc(-c2ccc(C)o2)n1)C(C)(C)C (centres undefined),i,i,17%,-0.7%,6.2e-09
CCOc1ccccc1N(CC(=O)NC1CCCC1)C(=O)CCC(=O)Nc1cc(C)on1,i,i,2%,-0.5%,5.2e-08
O=C(Nc1nc(SCc2ccc(F)cc2)ns1)c1ccco1,i,i,15%,-2.6%,1.4e-09
COCCn1nnnc1C(c1ccc(C)cc1)N1CCN(Cc2ccc3c(c2)OCO3)CC1 (centres undefined),i,i,8%,-2.5%,1e-09
CO[C@H]1COC(=O)CCC[C@H](C)[C@@H](OC)COC(=O)C/C=C\[C@@H]1C,/,/,-5%[11.4 µM],3.4%[11.5 µM],/
COc1cc(S(=O)(=O)N2CCOCC2)ccc1NC(=O)c1cc2c(s1)CCC2,i,i,?,-1.4%,2e-08
CCCCC(=O)N(c1ccc(OC)cc1)C1C=CS(=O)(=O)C1 (centres undefined),i,i,-4%[11.4 µM],0.5%,5.7e-09
Cc1cc(Cl)cc(Br)c1OCCCCn1cncn1,i,i,15%,-1.3%,1.4e-08
N#CC(=C1CCCC1)c1nc(-c2ccccc2O)cs1,i,i,?,1.8%,4.4e-08
CC1CCCC(NC(=O)CSc2nccn2C)C1C (centres undefined),i,i,0%,1.7%,2.4e-09
CCOC(=O)CSc1nnc(CNC(=O)c2cccs2)n1CCc1ccccc1,i,i,5%,0.3%,2.8e-08
Cc1[nH]c(=O)[nH]c(=O)c1S(=O)(=O)N1CCOCC1,/,/,15%,0.3%,/
Cc1cc(Cl)c2c(c1)[C@]1(C(=O)N2)[C@@H]2C(=O)N(Cc3ccccc3)C(=O)[C@@H]2[C@@H]2CCCN21,i,i,4%,2.0%,1e-09

# Reprinted at random: seven entries already listed, in no set order.
SMILES,Resorufin fluor,A488 fluor,TSHR ag,AID923,A647 fluor
O=C(NCc1ccco1)c1ccc(CS(=O)(=O)c2cccc(C(F)(F)F)c2)o1,i,i,8%,1.3%,1.3e-08
COCCn1nnnc1C(c1ccc(C)cc1)N1CCN(Cc2ccc3c(c2)OCO3)CC1 (centres undefined),i,i,8%,-2.5%,1e-09
Cc1nc2cc(N3CCN(C)CC3)c(NC(=O)Cc3ccccc3)cc2c(=O)n1Cc1ccccc1,i,i,-2%,0.9%,1.4e-09
Cc1cc(Cl)c2c(c1)[C@]1(C(=O)N2)[C@@H]2C(=O)N(Cc3ccccc3)C(=O)[C@@H]2[C@@H]2CCCN21,i,i,4%,2.0%,1e-09
CO[C@H]1COC(=O)CCC[C@H](C)[C@@H](OC)COC(=O)C/C=C\[C@@H]1C,/,/,-5%[11.4 µM],3.4%[11.5 µM],/
COc1cccc(-c2nnc3sc(-c4ccccc4)nn23)c1,i,i,/,/,1e-09
O=C(OCC(=O)N1CCc2ccccc21)c1cccnc1,i,i,-2%,0.0%,3.7e-09

# Next section.
SMILES,Resorufin fluor,A488 fluor,TSHR ag,AID923,A647 fluor
Cc1cccc(NC(=O)CCN2C(=O)C3C4C=CC(C4)C3C2=O)n1 (centres undefined),i,i,?,-0.1%,7.8e-09
CCCOC(=O)c1ccc(OCC(O)Cn2c(C)nc3ccccc32)cc1 (centres undefined),/,/,?,0.1%,/
CCOC(=O)Cn1c(C)c(Br)c(=O)c2cccc(C)c21,i,i,?,-0.7%,1e-09
CC1CN(c2nc3ccccc3nc2C(C#N)C(=O)NCc2ccc3c(c2)OCO3)CC(C)O1 (centres undefined),i,?,/,13%,1e-09
CC(=O)Nc1nc2ncc(C=O)nc2c(=O)[nH]1,i,i,12%[11.4 µM],4.5%[11.5 µM],3.8e-09
O=C(NC12CC3CC(CC(C3)C1)C2)N1CCN(c2ccccn2)CC1,i,i,8%,2.8%,1e-09
COC(=O)Nc1ccc(C)c(NC(=O)OC)c1,i,i,-3%,-0.6%,1e-09
COc1ccc(C2=NO[C@@H]3C(=O)N(c4c(C)cccc4C)C(=O)[C@H]23)cc1OC,i,i,3%,0.9%,1e-09
C#CCOC(=O)C1C2C=CC(C2)C1C(=O)O (centres undefined),/,/,-2%,0.2%,/
COc1ccc(S(=O)(=O)Cc2ccc(C(=O)NC(C)C)o2)cc1,/,/,3%,-2.2%,/
Cc1ccc(C(=O)NCCCNCCCNC(=O)c2ccc(C)nc2)cn1,i,i,/,/,3.3e-08
COc1ccc(OC)c(-c2[nH]nc3c2C(c2ccco2)C(C#N)=C(N)O3)c1 (centres undefined),i,i,12%,-1.2%,1.3e-08
O=C(NCCc1ccc(Cl)cc1)c1cnc2n(c1=O)CCS2,/,/,4%,0.2%,/
Cc1nn2c(-n3ccnc3)c3c(nc2c1-c1ccccc1)CCC3,i,i,0%,1.6%,1e-09
COc1ccc(NC(=O)CNS(=O)(=O)c2cccc3nonc23)c(OC)c1,i,i,-4%,-0.3%,4.5e-09
CCC(C)Sc1nc2c(c(=O)[nH]c(=O)n2C)n1Cc1ccccc1Cl (centres undefined),/,/,19%,-1.8%,/
Cc1ccc(N2CCCn3c2nc2c3c(=O)n(CC(=O)OCc3ccccc3)c(=O)n2C)cc1C,i,i,0%,-0.2%,1e-09
CC(=O)c1cccc(OCC(=O)c2cc(C)n(-c3cc(C)on3)c2C)c1,i,i,19%,-1.1%,9.6e-09
O=C1c2ccccc2NC(c2ccccc2)N1Cc1ccco1 (centres undefined),/,/,18%,9.6%,/
O=C(CSc1ccc2nnc(-c3ccccc3)n2n1)NCC1CCCO1 (centres undefined),i,i,2%,-1.3%,6.4e-09
COc1ccccc1NC(=O)Nc1nnc(C(C)C)s1,i,i,/,/,2.6e-08
CCOC(=O)N1CCN(S(=O)(=O)c2ccc(OCC(=O)OC)cc2)CC1,i,i,-2%,-1.8%,6.8e-09
Cn1c(=O)c2c(nc(CN3CCN(c4ccc(F)cc4)CC3)n2Cc2ccccc2F)n(C)c1=O,i,i,?,0.6%,3.7e-08
COc1ccc(CNc2oc(-c3ccccc3)nc2C#N)cc1,/,/,27%,1.6%,/
Cn1c(=O)c2[nH]c(CCC(=O)O)nc2n(C)c1=O,i,i,-7%[11.4 µM],1.2%[11.5 µM],2.9e-08

# Next part.
SMILES,Resorufin fluor,A488 fluor,TSHR ag,AID923,A647 fluor
COc1cc2[nH]c(=O)n(CCC(=O)NC3CCCC3)c(=O)c2cc1OC,i,i,-3%,-1.0%,4.6e-08
CS(=O)(=O)c1ccc2nc(NC(=O)CCC(=O)c3cccs3)sc2c1,i,i,-1%,0.8%,1e-09
C[C@H]1[C@H](C)OC(=O)C[C@H](O)C[C@H](O)C[C@H](O)CC[C@H](O)[C@H](O)CC(=O)C[C@H](O)[C@H](C(=O)O)[C@H](O)C[C@H](O[C@@H]2O[C@@H](C)[C@H](O)[C@@H](N)[C@@H]2O)C=CC=CC=CC=CCCC=CC=C[C@@](C)(O)[C@H]1O,i,i,?,-1.8%[11.5 µM],1e-09
Cc1noc(C)c1-c1nc(NCc2cccs2)c2ccccc2n1,i,i,?,1.7%,1.5e-09
CC(=O)NC1(c2ccccc2)CCN(Cc2nnnn2C(C)(C)C)CC1,i,i,-4%,-2.4%,1.8e-08
COc1ccc(-c2nnnn2C)cc1S(=O)(=O)NCc1ccccc1,i,i,1%,1.4%,1e-09
COC(=O)c1[nH]c2ccccc2c1NS(=O)(=O)c1ccc(F)c(C)c1,i,i,/,1.1%,1e-09
CNS(=O)(=O)c1cccc(C(=O)OCC(=O)Nc2ccccc2OC(F)F)c1,i,i,9%,-0.8%,1.5e-08
O=C1CC(NCc2ccncc2)C(=O)N1c1ccccc1 (centres undefined),/,/,6%,-1.3%,/
O=C(O)c1ccccc1NCn1c(=S)sc2ccccc21,i,i,3%[11.4 µM],3.0%[11.5 µM],1e-09
O=C(Cn1c(=O)n(-c2ccccc2)c(=O)n1CC(=O)N1CCCCC1)N1CCCCC1,/,/,6%,-0.8%,/
O=C(c1cccc(S(=O)(=O)N2CCCC2)c1)N1CCN(c2ccccc2)CC1,i,i,7%,1.0%,6.4e-09
CCSc1nnc(-c2ccccc2N)c(=O)[nH]1,i,i,9%,0.3%,9.1e-09
O=C(O)CC1SC(=Nc2ccccc2)N(c2ccccc2)C1=O (centres undefined),i,i,1%,-0.9%,7.6e-09
O=C(NCCCn1ccnc1)c1ccc(Cl)c(S(=O)(=O)N2CCOCC2)c1,i,i,-13%,0.3%,3.2e-08
COc1ccc(OC)c(S(=O)(=O)N2CCC(C(=O)Nc3cccc(C(F)(F)F)c3)CC2)c1,i,i,?,-0.2%,2.6e-08
COc1ccccc1CNC(=O)C1CCCN(S(=O)(=O)c2cccc3cccnc23)C1 (centres undefined),/,/,4%,2.6%,/
CCOC(=O)Nc1ccc2c(c1)N(C(=O)OCCN(C)C)c1ccccc1CC2,/,/,-3%,0.3%,/
Cc1ccc(S(=O)(=O)N2CCN(C(=O)CN3CCOCC3)C2c2ccccc2)cc1 (centres undefined),i,i,?,0.9%,6.2e-09
CCOC(=O)C1CCCN(C(=O)C2c3ccccc3Oc3ccccc32)C1 (centres undefined),/,/,?,0.5%,/
Fc1ccc(-c2nnn(Cc3nc4ccccc4s3)n2)cc1,i,i,?,1.1%,2.5e-08
CCc1cc(C(C)=O)c(O)cc1OCCCCCC(C)(C)c1nn[nH]n1,/,/,?,2.7%,/
Cc1nnc(SCC(=O)Nc2ccccc2)n1CCc1ccccc1,i,i,-3%,2.4%,1.2e-09
COc1ccc(-c2cc(=O)oc3c(C)c(OCc4nn[nH]n4)ccc23)cc1,i,i,26%,1.6%,5.1e-09
N#Cc1c(NC(=O)c2cc(-n3cnnc3)ccc2Cl)sc2c1CCCC2,i,i,17%,-0.4%,2.3e-08

# Some of the compounds tested, so the mix of outcomes need not match the whole.
